Vif TR-FRET = inhibitors of Vif binding to APOBEC3G peptide, primary screen, biochemical, TR-FRET, GST-Vif 1-94, biotin-A3G peptide, dose response retest (AID 1117319). TR-FRET GST-Vif / biotin-A3G peptide binding; higher % means a stronger effect; test concentration not given here; strong numbers were not always called active. 0.57% of 260,000 active. one-dose inhibition, %; IC50 in µM for titrated hits;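 active = above the screen mean plus three standard deviations and confirmed in dose response; inconclusive = results disagree or hit not tested in dose response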;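 note: Vif residues 1-94 fused to GST binding biotinylated APOBEC3G peptide 110-148; 0% = full assay without inhibitor and 100% = GST in place of GST-Vif; retest series ran down from 100 µM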
A1 inh = inhibitors of the anti-apoptotic protein A1, read as caspase activation | MEF A1-2A-BIM cells, Caspase-Glo 3/7 luminescence, 3 h; percent of clofoctol response, vehicle zero | 0.066% of 330,000 active | AID 2462 | caspase activation, % (test concentration not listed);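 active = over half of replicate activation scores above 10%, or exactly half above 10 with the replicate mean above 10; inconclusive = replicate mean below 10 yet half the replicates above 10; inactive = over half of replicates below 10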;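 note: wells of about 30 µL received 50 nL stock; many hits fall short of the cut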
T cruzi inh = blocks replication of Trypanosoma cruzi. T. cruzi beta-gal in NIH3T3, luminescence, 90 h. inhibition, % (no concentration beside the values). 1.4% of 300,000 active. AID 1885;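 active = mean inhibition across valid replicates above about 55%, limit read from the data; inconclusive = mean below that limit but half or more replicates reach it; inactive = mean below it, under half of replicates reach it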;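 note: signal also drops with host cell toxicity which is not excluded here; 0% = plate median of DMSO wells and 100% = zero luminescence signal; higher percent means less beta-gal luminescence so fewer parasites; stock transfer was 50 nL into about 50 µL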
RanGTP-Imp inh = disruptors of Ran-importin-beta complex formation – biochemical, FRET, CFP-Ran, YFP-importin-beta, homogeneous, primary screen. inhibition, % (concentration not given with the values). AID 2216. cell-free CFP-Ran/YFP-importin-beta FRET ratio. 1.1% of 300,000 active;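 active = most replicates above 15%; inconclusive = exactly half above 15%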;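 note: 0% = DMSO wells and 100% = Ran loaded with GDP instead of GTP; wells of about 40 µL received 100 nL stock; the first replicate is given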
Beta apoptosis = beta cell apoptosis inhibition; protection from apoptosis, % (concentration not given with the values); AID 435005; 0.8% of 300,000 active; INS-1E cytokine-induced death, ATP luminescence, 48 h; percent of positive-control rescue, neutral wells zero;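 active = all replicates at 75% or more, or half of them and the mean; inconclusive = half reach 75% but not the mean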;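 note: 0% = cytokine-treated negative control wells and 100% = positive control rescue; higher means more ATP so stronger rescue from cytokine killing; wells of about 40 µL received 100 nL stock; the first replicate is given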
Ecoli rRNA inh = inhibitors of bacterial rRNA selective over humanized ribosomes; E. coli WT GFP vs humanized-ribosome RFP mutants, fluorescence, 24 h; hits give low values; DMSO median 0, no signal -100; GFP signal change (wild-type ribosome), % (concentration not given with the values); 1.6% of 350,000 active; AID 720706;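 active = significant combined selectivity score with lowered wild-type GFP, culture density cut under 30%, mutant RFP and density less affected; inactive = any of these conditions unmet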; note: one replicate is shown; some compounds called inactive have numbers as strong as hits
MLL AF4-AF9 inh = blocks AF4 peptide binding to human AF9; P42568; inhibition, % at 10 µM; AlphaScreen, biotin-AF4 peptide binding to FLAG-AF9; 0.47% of 350,000 active;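 active = every replicate reaching a set inhibition limit, whatever the replicate mean, cut at about 25% in these data; inconclusive = mean inhibition reaches that limit but some replicates miss it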;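 note: 0% = plate neutral control median and 100% = total signal loss; the record names both 10 and 1 µM as test concentration; the first replicate is given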
Target sequence (P42568 whole entry, looked up): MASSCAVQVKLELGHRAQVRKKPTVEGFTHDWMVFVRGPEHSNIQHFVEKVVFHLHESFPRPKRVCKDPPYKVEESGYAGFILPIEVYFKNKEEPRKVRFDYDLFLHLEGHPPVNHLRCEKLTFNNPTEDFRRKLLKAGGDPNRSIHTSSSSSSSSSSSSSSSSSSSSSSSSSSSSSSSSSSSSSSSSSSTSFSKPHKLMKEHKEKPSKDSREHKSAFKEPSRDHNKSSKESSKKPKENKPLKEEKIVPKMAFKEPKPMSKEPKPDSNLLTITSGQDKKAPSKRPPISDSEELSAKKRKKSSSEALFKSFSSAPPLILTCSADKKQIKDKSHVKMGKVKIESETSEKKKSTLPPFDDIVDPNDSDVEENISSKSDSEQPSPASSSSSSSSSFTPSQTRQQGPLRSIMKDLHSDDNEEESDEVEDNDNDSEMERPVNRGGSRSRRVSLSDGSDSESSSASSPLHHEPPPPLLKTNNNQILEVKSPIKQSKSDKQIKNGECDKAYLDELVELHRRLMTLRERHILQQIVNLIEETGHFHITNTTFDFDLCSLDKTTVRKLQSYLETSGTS
Calb FLC = C. albicans growth modulation with fluconazole; C. albicans CaCi-2 (fluconazole-resistant clinical isolate) + fluconazole, Alamar Blue growth, 48 h; growth inhibition, % (test concentration not listed); 0.57% of 300,000 active;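 active = most replicates above 75%; inconclusive = exactly half above 75%; inactive = most below 75%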;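 note: all wells also contain fluconazole at 8 µg/ml as a sub-toxic cotreatment; 0% = median of DMSO wells and 100% = median of geldanamycin control wells; wells of about 8 µL received 7.5 nL stock; the first replicate is given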
Ecoli rRNA inh OD600 = recorded beside Ecoli rRNA inh, whose call it bears; OD600 change, %; measured here: OD600 growth;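 optical density of the mix in the first replicate; 0 = DMSO median and -100 = no signal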
Ecoli rRNA inh RFP = further read-out of Ecoli rRNA inh, marked with its call; RFP signal change, %; measured here: RFP humanized mutant strains;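 first replicate; 0 = DMSO median and -100 = no signal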
Numbers without * were called inactive; ? = inconclusive; . = not tested or not shown; & = joins results of further samples. This is a subset; the hit share may differ from the screen's.

SMILES	Vif TR-FRET	A1 inh	T cruzi inh	RanGTP-Imp inh	Beta apoptosis	Ecoli rRNA inh	Ecoli rRNA inh OD600	Ecoli rRNA inh RFP	MLL AF4-AF9 inh	Calb FLC
CC(=O)Nc1ccc(N2C(=O)C3C4CC(=O)C(c5ccccc54)C3C2=O)cc1 (stereo not given)	18%	-0.5	-7	?	-3	.	.	.	.	1
CC(C)(C)c1ccc(CS(=O)(=O)CC(O)CN2CCCC2=O)cc1 (stereo not given)	2%	0.7	-7	0.0	-8	2	8	2.0	0.1	9
Nc1c2c(nc3c1CCC3)CCCC2	.	0.2	13	1.9	-7	.	.	.	.	-6
CSc1ncccc1C(=O)N1CCN(S(=O)(=O)c2cc(C)ccc2C)CC1	.	0.4	16	7.9	-5	0	-14	0.1	2.1	5
CN(CC(=O)Nc1ccc(Cl)c(C(F)(F)F)c1)C(=O)C1CCC1	7%	0.5	4	-3.0	-1	-5	-8	2.0	-3.4	0
Brc1cccc(CN2CCN(c3ncccn3)CC2)c1	-3%	-1.1	-4	0.7	-4	-1	-3	0.7	6.1	-2
CSc1ccc(/C=N/S(=O)(=O)c2ccccc2)cc1	-5%	-0.1	-19	5.0	-8	7	17	-12	-4.2	-1
CC1(C)Cc2ccccc2C(N/N=C/c2ccc([N+](=O)[O-])cc2)=N1	1%	-0.5	-3	0.8	-4	18	14	4.2	2.0	75*
COc1cccc(N2CC(C(=O)Nc3nnc(SCC(=O)Nc4cc(C)on4)s3)CC2=O)c1 (stereo not given)	-8%	0.8	-8	-4.1	-6	7	6	-1.1	-0.9	-12
O=C(OCC(=O)N1CCN(c2ccccc2)CC1)c1ccc2ccccc2n1	14%	0.3	-5	1.0	-3	.	.	.	.	0
Cc1cc2nc(-c3ccc(SCC(=O)N4CCN(C(=O)c5ccco5)CC4)nc3)[nH]c2cc1C	3%	-4.6	-8	1.5	12	.	.	.	.	-9
CC(=O)c1cccc(NC(=O)C2CCN(S(=O)(=O)c3ccc(C)cc3)CC2)c1	-5%&31%	2.7	-7	-2.7	-7	.	.	.	.	-7
Cc1ccc(/C=N/NC(=O)c2cc(-c3ccccc3)nc3ccccc23)o1	.	0.1	-21	6.6	9	6	5	-0.2	6.8	-1
Cc1cnc(=O)[nH]c1SCc1ccc([N+](=O)[O-])cc1	.	0.2	7	2.8	-7	-3	-4	4.4	4.2	3
O=C(C1CCCN1S(=O)(=O)c1cccc2cccnc12)N1CCn2c1nc1ccccc12 (stereo not given)	0%	-0.8	-1	-0.8	.	.	.	.	.	10
CCOC(=O)c1c(NC(=O)OC)sc2c1CCC2	?	-0.4	3	-0.9	0	.	.	.	.	2
CCNS(=O)(=O)c1ccc(CCC(=O)Nc2ccc(C(=O)OC)cc2)cc1	-1%	-0.3	19	-1.1	3	-6	1	-1.2	-0.2	0
Cc1ccc2nc3c(cc2c1)c(NC(=O)C(C)(C)C)nn3CC(C)C	4%	0.2	-1	44*	0	5	7	1.9	-24	-4
Cc1ccc(N2CCCCn3c2nc2c3c(=O)[nH]c(=O)n2C)cc1	2%	-0.2	-2	0.1	0	.	.	.	.	-6
CCCNC(=S)N1CCN(C)CC1	5%	0.9	-14	0.6	-9	.	.	.	.	6
Cc1ccc(S(=O)(=O)NC(C(=O)N2CCOCCOCCOCC2)c2ccccc2)cc1 (stereo not given)	-2%	1.0	-10	0.4	-2	4	5	-2.4	-0.3	-8
COc1ccccc1-c1cc(C(F)(F)F)nc(N2CCN(c3ccccc3)CC2)n1	-11%	0.5	10	-2.4	9	.	.	.	.	2
COc1ccc(Cl)cc1N(CC(=O)N(C)C)S(=O)(=O)c1ccc(C)c([N+](=O)[O-])c1	-3%	-1.5	4	3.8	-3	6	2	-4.0	4.7	3
COCCNC(=S)Nc1ccccc1[N+](=O)[O-]	-8%	1.5	-10	-1.3	-5	19	13	2.5	7.6	-3
CCN(CC)S(=O)(=O)c1ccc(N2CCOCC2)c(NC(=S)NC(=O)c2ccco2)c1	13%	-0.6	20	5.7	-2	-12	-7	6.9	-7.5	-12

Continued (2 carried over from the part before).
SMILES	Vif TR-FRET	A1 inh	T cruzi inh	RanGTP-Imp inh	Beta apoptosis	Ecoli rRNA inh	Ecoli rRNA inh OD600	Ecoli rRNA inh RFP	MLL AF4-AF9 inh	Calb FLC
COCCNC(=S)Nc1ccccc1[N+](=O)[O-]	-8%	1.5	-10	-1.3	-5	19	13	2.5	7.6	-3
CCN(CC)S(=O)(=O)c1ccc(N2CCOCC2)c(NC(=S)NC(=O)c2ccco2)c1	13%	-0.6	20	5.7	-2	-12	-7	6.9	-7.5	-12
COc1ccc(CNC(=O)COC(=O)c2ccc(OCc3c(C)noc3C)cc2)cc1OC	16%	0.1	-12	2.1	5	-3	1	-1.4	0.7	3
O=C(Nc1ccccc1N1CCCC1)c1cccnc1Cl	3%	-0.6	-12	-4.2	-2	.	.	.	.	-10
COc1ccc(-n2nnnc2SC(C)C(=O)NC2CCCC2)cc1 (stereo not given)	.	-0.2	.	.	2	0	1	1.7	0.4	.
Cn1c(=NC(=O)c2ccccc2[N+](=O)[O-])sc2cc(S(C)(=O)=O)ccc21	-2%	-12	3	0.5	-1	.	.	.	.	25
CN(C)/N=C/C=C1\CCC/C(=C\c2ccc(F)c(F)c2)C1=O	?	0.1	-21	-8.6	19	-27*	-20*	-0.6*	3.6	13
Cc1ccc(Nc2cc(=O)oc3ccccc23)c(C)c1	-4%	-0.8	-6	0.5	1	.	.	.	.	0
O=C(OCc1c(-c2ccccc2)ncc2ccccc12)c1ccc(Br)cc1	.	-0.9	.	.	3	6	0	2.3	-0.4	.
Cc1ccc(C(=O)NNC(=O)CCCCC(=O)NNC(=O)c2ccc(C)cc2)cc1	.	-0.2	-5	1.6	-7	3	3	3.3	0.7	-4
CC1C(=O)N2CCCc3cc(S(=O)(=O)NCc4ccc(Cl)cc4)cc1c32 (stereo not given)	2%	-1.7	43	-2.0	1	-25	-22	-3.4	1.2	-3
Cn1cc(C(=O)c2cccc(Cl)c2Cl)cc1C(=O)O	1%	0.3	-7	7.0	1	.	.	.	.	-5
O=C(Nc1nccs1)c1cc2sccc2n1Cc1ccc(F)cc1	-8%	-0.5	-5	5.0	6	.	.	.	.	-8
Cc1cccc(NC(=O)N2CCC(C(=O)c3ccc(F)cc3)CC2)c1	.	0.5	-31	0.7	6	-16	-19	-0.4	0.6	1
CC(C)CC(=O)NC(=S)NCCc1ccccc1	-1%	-0.6	-5	-1.7	1	.	.	.	.	-1
CC(=O)N1CCN(c2ccc(Nc3ncnc4c3oc3ccccc34)cc2)CC1	10%	2.7	-14	-1.4	32	.	.	.	.	8
O=C(Nc1cccc(-n2cnnn2)c1)c1ccc(Cl)cc1Cl	-2%	0.9	16	1.9	.	11	15	-2.1	0.8	-9
COc1cccc(NC(=O)CN(C)C(=O)Cn2[nH]c(=O)c3ccccc3c2=O)c1	-6%	0.3	4	3.3	3	-8	-9	1.4	-0.2	.
Cc1ccc(NC(=O)COC(=O)C2COc3ccccc3O2)cc1S(=O)(=O)N1CCOCC1 (stereo not given)	-9%	0.4	-6	-2.8	-3	.	.	.	.	1
CC(/C=C1\SC(=S)N(c2ccc(C(=O)O)cc2)C1=O)=C\c1ccccc1	?	-0.3	8	-3.0	4	2	-10	13	4.6	20
Cc1cc([N+](=O)[O-])ccc1NC(=O)c1cccc(NC(=O)C(C)C)c1	22%	-0.3	-6	3.0	8	-3	-3	0.7	-2.9	14
Cc1cccc(NC(=O)c2ccc(OCc3c(C)noc3C)cc2)n1	-4%	0.3	.	.	-6	-9	-9	-0.3	1.5	.
Cc1ccc(/C=N/N2CCN(Cc3ccc(Cl)cc3)CC2)o1	10%	0.6	13	3.9	2	.	.	.	.	2
CCc1nnc(NC(=O)CC23CC4CC(CC(C4)C2)C3)s1	.	1.1	-12	2.3	3	6	12	-5.5	-7.8	1
CCOc1ccc(NC(=O)COc2ccc(C(=O)NC(C)c3ccc(S(N)(=O)=O)cc3)cc2OC)cc1 (stereo not given)	6%	1.0	4	-2.1	.	8	-1	-1.2	-0.2	1
Cn1nc([N+](=O)[O-])nc1Sc1nnnn1-c1ccc(C(=O)O)cc1	21%	0.4	-8	6.6	0	13	12	0.9	-3.3	14
CCOc1c(OC(C)=O)ccc(/C=C/c2ccc3cccc(OC)c3n2)c1[N+](=O)[O-]	21%	-0.6	-7	-1.3	-10	-20	-23	-1.2	4.1	1
More records:
SMILES	Vif TR-FRET	A1 inh	T cruzi inh	RanGTP-Imp inh	Beta apoptosis	Ecoli rRNA inh	Ecoli rRNA inh OD600	Ecoli rRNA inh RFP	MLL AF4-AF9 inh	Calb FLC
O=C(CCc1ccccc1)Nc1ccc(Cl)cn1	25%	-0.1	-7	-4.0	2	.	.	.	.	0
CC1CCCCC1NC(=O)c1nn(C)c2c1CS(=O)(=O)c1ccccc1-2 (stereo not given)	-4%	0.5	3	-0.3	-3	-20	-14	-1.3	-8.3	-2
N#Cc1ccc(NC(=O)Nc2ccc(Cl)cc2)cc1	6%	-1.0	71*	-1.6	105*	.	.	.	.	53
COCCn1c(C)cc(C(=O)CSc2nc3ccccc3c(=O)n2C(C)COC)c1C (stereo not given)	5%	-0.3	1	-1.4	0	-12	-21	0.6	18	6
Cc1cccc(Oc2cc([N+](=O)[O-])cc3c2C(=O)Nc2ccccc2O3)c1	-1%	-0.2	-16	-5.2	9	-3	-18	-7.3	4.5	14
COc1cc(NC(=O)c2onc(C)c2Cl)c(OC)cc1Cl	24%	0.2	-1	-4.5	5	2	6	-1.0	-2.2	-9
Cc1cc(C(=O)Nc2ccc3c(c2)OCCO3)c2ccccc2n1	-11%	0.0	-17	0.6	-1	12	-5	-0.3	-3.5	-8
CCN(C[C@H]1N[C@@](Cc2ccccc2)(C(=O)OC)[C@H]2C(=O)N(Cc3ccccc3)C(=O)[C@@H]12)S(=O)(=O)c1ccc(F)cc1	0%	-0.5	.	.	6	4	25	0.5	-8.1	.
COc1ccc2c(CC(=O)Nc3cccc(S(=O)(=O)N4CCOCC4)c3)coc2c1	18%	0.2	-7	0.8	1	.	.	.	.	1
COc1ccc(NC(=O)N(C)C[C@H]2Oc3ccc(NC(=O)c4ccncc4)cc3C(=O)N([C@H](C)CO)C[C@@H]2C)cc1	.	0.2	.	.	50	1&13	7&20	-0.8&-1.8	-1.6&-3.2	.
CC(=O)NN1C(=O)c2ccccc2NC1c1ccccn1 (stereo not given)	.	-0.3	-13	-0.7	-7	.	.	.	.	-1
CSCC[C@H](NC(=O)c1cccs1)C(=O)N1CCC2(CC1)NCCc1[nH]cnc12	-3%	0.9	-20	4.3	-4	3	9	-1.9	-0.9	-6
Cc1ccc(CSc2nnc(-c3ccncc3)o2)c(C)c1	0%	-0.2	27	-2.7	1	3	-4	-3.8	-4.8	41
O=CNC(Cc1ccccc1)C(=O)O (stereo not given)	-6%	0.4	-5	1.0	-4	.	.	.	.	-15
